# Menin MLL FP FL: displaces fluorescein MLL peptide from human menin; 290,000 tested, under 10 active; Fluorescence polarization, fluorescein-MLL peptide displacement from menin; FP activity change, % at 61.4 µM; AID 1766; inconclusive = falling polarisation curve, or a change in total fluorescence; inactive = total fluorescence flat and polarisation flat or rising; no compound was filed as active; the % refers to the polarisation; negative = inhibition;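 note: % of control where 0% means no effect; inhibitors lower the polarisation; unlabelled MLL peptide was the positive control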
# ClpP mod: qHTS Assay for Activators of ClpP. purified B. subtilis ClpP, FRET peptide cleavage, 20 min. Potency, µM (top dose mostly 57.5 µM), without a hit: at the highest dose activity change, negative = active. ATP-dependent Clp protease proteolytic subunit (Bacillus subtilis (strain 168)), P80244. actives 1.9% (n = 340,000); active = well fitted falling curve with a large enough effect; inconclusive = small, poorly fitted or top-dose-only effect; inactive = no such curve, though single readings can be large or run the other way; note: potency is the fitted concentration of half-maximal effect; the source files actives as falling curves though it sought activators and does not explain the sign; nearly all actives have a fitted effect of over 65% in size; many hits overshoot -100%
# Target sequence (P80244 whole entry, looked up): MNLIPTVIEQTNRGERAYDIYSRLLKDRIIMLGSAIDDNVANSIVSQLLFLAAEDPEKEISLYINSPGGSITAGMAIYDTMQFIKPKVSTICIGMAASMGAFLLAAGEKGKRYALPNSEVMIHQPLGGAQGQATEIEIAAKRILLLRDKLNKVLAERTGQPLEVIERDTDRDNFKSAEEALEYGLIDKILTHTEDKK
#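 FRET quenching reversal measured ClpP activation: 10 microg/mL B. subtilis ClpP at pH 8 with the FRET-FV decapeptide, read at 430 nm after 320 nm excitation. The 20-min minus 0-min signal was scaled between DMSO/no-enzyme wells and ADEP (5.8 microM final).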
# D2 agonist: activates the human D2 dopamine receptor; activation, % (test concentration not listed); actives 0.084% (n = 360,000); DiscoveRx PathHunter D2 beta-arrestin, luminescence, 90 min; 100% = 57 uM dopamine signal; AID 624465; in the data active = activation above about 40%; inconclusive = about 15% to 40%; inactive = below about 15%; note: compound concentration not given in the record; the text of the record calls up to 30% inactive
# Target sequence (P14416 whole entry, looked up): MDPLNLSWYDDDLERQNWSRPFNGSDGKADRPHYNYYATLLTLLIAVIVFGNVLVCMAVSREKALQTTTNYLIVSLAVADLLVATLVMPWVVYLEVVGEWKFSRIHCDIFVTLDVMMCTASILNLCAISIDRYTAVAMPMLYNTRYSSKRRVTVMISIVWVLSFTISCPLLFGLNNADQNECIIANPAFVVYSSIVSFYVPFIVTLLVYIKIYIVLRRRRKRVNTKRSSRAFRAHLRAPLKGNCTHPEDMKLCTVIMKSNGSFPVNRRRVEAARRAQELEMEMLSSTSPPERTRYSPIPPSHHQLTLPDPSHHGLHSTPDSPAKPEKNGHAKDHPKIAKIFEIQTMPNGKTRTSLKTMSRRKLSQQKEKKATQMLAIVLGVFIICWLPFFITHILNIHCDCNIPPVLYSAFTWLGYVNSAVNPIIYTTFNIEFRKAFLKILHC
#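 DiscoveRx PathHunter D2 beta-arrestin cells (2,100/well) attached overnight, then compound-stimulated 90 min at 37 C in HBSS/10 mM HEPES/0.1% Tween-20 buffer; beta-galactosidase complementation read by luminescence after 1 h at ambient temperature. Dopamine 57 uM final (EC100) as control.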
# gsp antagonist: antagonists of gsp mutant (McCune-Albright syndrome); gsp-mutant cells, cAMP HTRF, 30 min; control for the full effect not named in the record; Potency, µM (series often up to 76.9 µM), without a hit: at the highest dose activity change, negative = inhibition, usual class: inhibitors; actives 0.4% (n = 340,000); active = falling curve of any shape with a large fitted effect; inconclusive = falling curve, mostly with a smaller effect; inactive = flat or rising curve; cell line not stated here;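 note: intracellular cAMP measured with PDE inhibitor Ro 20-1724 present during compound exposure; potency is the fitted concentration of half-maximal effect; % is set by controls: 0 for no effect and ±100 for the full control effect; nearly all actives have a fitted effect of over 65% in size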
#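 Measurement of cellular cAMP by homogeneous time-resolved fluorescence following a 30 min compound exposure at 37C. The PDE inhibitor […] was present throughout; the assay buffer was DPBS with 0.05% BSA and 0.005% Tween 20.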
# PINK1 modulator: changes PINK1 expression; actives 0.2% (n = 410,000); PINK1 immunofluorescence, high-content cytometry, 24 h; Potency, µM (series often up to 76.6 µM), without a hit: top-dose activation (PINK1 increase), hits mostly activators; active = well fitted activation curve with a large enough effect; inconclusive = small, poorly fitted or top-dose-only effect; inactive = flat fitted curve, though single readings scatter; cell line not stated here;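 note: potency is the fitted concentration of half-maximal effect; % of control where 0% means no effect; nearly all actives have a fitted effect of over 65% in size; a mitochondrial uncoupler was the plate control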
#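 Cells are seeded, rested 12 hours, then given compound at five concentrations or DMSO for 24 hours. After fixation, blocking and antibody staining, PINK1 amount and mitochondrial localization are scored; CCCP serves as control.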
# gsp agonist: agonists of gsp mutant (McCune-Albright syndrome); Potency, µM (doses to about 76.9 µM), for the others: at the highest dose activation (cAMP increase), hits mostly activators; gsp mutant cells, cAMP HTRF, 30 min; control for the full effect not named in the record; actives 0.13% (n = 340,000); active = well fitted activation curve with a large enough effect; inconclusive = small, poorly fitted or top-dose-only effect, or another doubt; inactive = no such curve, though single readings can be large or run the other way; cell line not stated here;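 note: phosphodiesterase inhibitor Ro 20-1724 added with compounds to block cAMP breakdown; potency is the fitted concentration of half-maximal effect; nearly all actives have a fitted effect of over 60% in size; about a fifth of the inactives were tested at one dose only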
#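 Cells in DMEM/10% FBS with G418 were pretreated with compounds in DMSO plus […] (300 uM stock) for 30 min at 37C. cAMP was measured by HTRF (cAMP-d2 plus anti-cAMP antibody-K) after 30 min at room temperature.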
# Sfp PPTase inh: blocks B. subtilis Sfp PPTase activity | Q9F4F7 | Biochemical Sfp PPTase activity, qHTS | Potency, µM, for the others: max response, negative = inhibition, most hits filed as inhibitors | actives 3.5% (n = 310,000) | AID 1490; active = well fitted inhibition curve with a large enough effect; inconclusive = small, poorly fitted or top-dose-only effect, or another doubt; inactive = no such curve, though single readings can be large or run the other way;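 note: the enzyme is Sfp with the accession as filed and its product quenches rhodamine fluorescence; potency is the fitted concentration of half-maximal effect; 0% = enzyme reaction without inhibitor and -100% = no enzyme wells; top concentration of the series not given in the record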
#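 Compounds were incubated with enzyme (final 15 nM) for 15 min at room temperature before substrate addition started the reaction. Fluorescence at 525 nm excitation, 598 nm emission was recorded immediately and after 30 minutes.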
# Numbers without * were called inactive; ? = inconclusive; . = not tested or not shown; & = joins results of further samples; [ ] = dose if it differs, or a comment.
SMILES,Menin MLL FP FL,ClpP mod,D2 agonist,gsp antagonist,PINK1 modulator,gsp agonist,Sfp PPTase inh
COc1ccccc1Oc1cc(F)nc(N)n1,-1.4,0.2%,-0.5,6.8%,15.4%[38.3 µM],-16.5%,18.1%
CCC(C)Sc1ccc([C@H]2N[C@@](C)(C(=O)OC)[C@H]3C(=O)N(C)C(=O)[C@@H]23)cc1 (stereo partly drawn),.,1.9%,1.4,0.3%,0.7%,.,.
CC(C)(CC(=O)O)CC(=O)NCc1c(Cl)cccc1Oc1ccccc1,-0.8,.,0.0,-16.9%,-0.1%,30.7%,8.2%
CS(=O)(=O)N(CC(=O)NC1CCCCC1)Cc1ccc(Cl)cc1,3.2,-2.0%,-2.0,-3.5%,6.1%[38.3 µM],-26.1%,15.5%
COc1ccccc1NC(=O)CN1CCSc2ccccc21,-0.3,1.0%,-6.1,-16.3%,-2.3%,-1.1%[15.4 µM],-13.2%
O=C(O)CCCN1C(=O)C(=O)/C(=C(/O)c2ccccc2)C1/C=C/c1ccccc1 (stereo not drawn),-0.3,.,-2.2,-4.9%,0.8%,-6.3%[15.4 µM],8.0%
O=C(/C=C\c1ccccc1)Nc1ccc(NC(=O)c2ccco2)cc1,-0.4,.,1.3,.,2.1%,0.6%[15.4 µM],12.5%
O=C(c1cc(F)ccc1F)N1CCC(N2CCC(C(=O)N3CCCC3)CC2)CC1,.,.,-2.5,0.3%,-0.8%,-5.5%,7.5%
COc1ccccc1Nc1nc(N)nc(CN2CCN(Cc3ccc4c(c3)OCO4)CC2)n1,2.4,.,-0.7,3.5%,0.5%,8.0%[15.4 µM],?
CCN1c2ccccc2-c2nc3ccccc3n2C1c1cccs1 (stereo not drawn),-1.2,?,0.2,?,14.8%,4.1%[15.4 µM],-12.3%
COc1ccc(-c2cc3nc(-c4ccccc4)cc(N4CCN(C(=O)c5ccsc5)CC4)n3n2)cc1,.,3.8%,-7.1,.,2.7%,0.2%,.
O=CN1CCN(C(=S)Nc2ccc(OC(F)F)cc2)CC1,1.0,-0.6%,-4.3,-4.6%,0.3%,?,-0.6%
O=C(Cc1ccc(Br)cc1)NC1CCN(Cc2ccccc2)CC1,-2.8,.,-2.2,2.1%,-0.4%,4.9%[15.4 µM],11.5%
CC(C(=O)OCC(=O)c1ccc([N+](=O)[O-])cc1)N1C(=O)C2C3CCC(C3)C2C1=O (stereo not drawn),0.1,.,5.3,15.1%,-0.3%,-14.7%,-17.5%
COc1cc(O)c(CCC(=O)c2cc(OC)c(OC)c(OC)c2)c(OC)c1,3.9,-6.0%,-0.5,-6.7%,0.7%,?,-1.0%
CCn1nnc(NC(=O)COc2ccc(C3CCCCC3)cc2)n1,4.0,-0.3%,0.8,-28.1%,13.3%[38.3 µM],0.0%,10.5%
CC(NC(=O)Cc1cccs1)C(c1cccs1)N1CCOCC1 (stereo not drawn),-0.2,-0.4%,-0.6,-29.4%,-1.3%,?,-6.0%
CC1CCN(CC(=O)Nc2ccccc2C(=O)c2ccccc2)CC1,0.6,.,-6.7,-4.3%,9.5%,-6.1%,12.7%
O=S(=O)(c1ccc(S(=O)(=O)N(Cc2ccccc2)Cc2ccco2)cc1)N1CCCC1,.,1.5%,0.5,10.4%,?,?,.
COC(=O)C1=C(O)/C(=C\c2ccc(OCC(=O)Nc3ccc(OC)cc3)cc2)N=C1C,.,4.5%,-1.7,14.8%,1.8%,-37.0%[inhibitor],8.1%
Cc1ccc(C(=O)NC(C)c2ccc(C)c(C)c2)s1 (stereo not drawn),.,.,3.4,0.5%,0.0%,-18.3%,.
CCCCCN(C(=O)CCC(=O)OCC(=O)N1CCCCC1CC)c1c(N)n(CCCC)c(=O)[nH]c1=O (stereo not drawn),.,0.1%,-0.6,5.3%,1.2%,0.7%[15.4 µM],.
C[C@H](O)[C@@H]1C(=O)N2CCc3ccc(N4CCOCC4)cc3[C@@H]2C[C@@H]1N(C)C(=O)Nc1ccccc1,.,1.1%,-0.6,6.6%,-0.7%,.,.
CC(C(=O)NCCc1nc2ccccc2[nH]1)n1cc([N+](=O)[O-])cn1 (stereo not drawn),3.6,.,2.7,3.2%,1.4%,23.0%,12.7%
CC1CCN(c2ccc(NC(=O)c3ccc(Br)o3)cc2)CC1,.,1.8%,1.3,3.2%,0.0%,-8.4%[15.4 µM],14.2%
# Next records:
SMILES,Menin MLL FP FL,ClpP mod,D2 agonist,gsp antagonist,PINK1 modulator,gsp agonist,Sfp PPTase inh
COc1ccc(C2NN=C(c3c[nH]c4ccccc34)C2O)cc1 (stereo not drawn),?,-18.3%,?,-3.9%,3.5%,?,56.2µM*
CCOC(=O)c1c(NC(=O)c2c(C(=O)O)cccc2[N+](=O)[O-])sc(C)c1C,-0.2,.,-0.9,8.5%,-0.3%,-8.8%,-19.0%
Cc1cc(NC(=O)NC(=O)c2ccccc2F)no1,.,-0.6%,-2.0,2.1%,1.6%,27.9%,11.4%
COc1cc2oc(=O)cc(-c3ccc(-c4ccc(OC(F)(F)F)cc4)cc3)c2c(OC)c1OC,-3.3,-2.5%,0.3,6.1%,0.6%,.,3.2%
C[C@@H]1C=C(C(=O)NC2CC2)O[C@H](OCc2ccc(CO)cc2)C1,1.1,2.0%,-0.1,12.1%,-0.6%,.,13.5%
O=C(c1cc(F)ccc1F)C1CCCN(C(=O)c2ccc(F)cc2Cl)C1 (stereo not drawn),3.0,.,3.1,-6.0%,0.8%,19.4%[15.4 µM],1.3%
Cc1nn(Cc2ccc(Cl)c(Cl)c2)c(C)c1NC(=O)c1cn(-c2ccccc2)nc1-c1ccccc1,-1.0,-1.5%,-2.5,-9.7%,-0.5%,-2.7%,17.6%
COc1ccc(C(=O)NCC(c2cccnc2)N2CCN(c3ccc(F)cc3)CC2)cc1OC (stereo not drawn),5.2,-1.2%,-6.0,0.2%,-0.6%,-41.5%[inhibitor],15.0%
CC[C@@H]1C(c2ccccc2)=NN(c2ccccc2)[C@H]1C(=O)N1CCOC1=O,?,11.6%,3.2,-13.9%,3.5%,.,2.9%
CCC(c1nnc(SCC(=O)Nc2ccc(C(N)=O)cc2)n1Cc1ccccc1)N(C)C (stereo not drawn),.,-0.7%,-0.6,3.7%,-0.8%,-12.2%,5.5%
COc1ccc(/C=C/C(=O)Nc2ccc(-c3nnc4n3CCCCC4)cc2)c(OC)c1,1.9,-18.2%,2.2,-3.6%,-1.8%,?,-6.3%
CCCS(=O)(=O)NC(=O)C1(C)CCCN(C(=O)c2cccc(OC(F)(F)F)c2)C1 (stereo not drawn),.,-1.7%,-4.0,.,-0.4%,.,.
COc1oc(-c2ccccc2)nc1C(F)(F)F,-0.1,-15.3%,-0.7,2.3%,.,20.5%,-2.9%
CC(C)C(NC(=O)c1ccco1)C(=O)OCC(=O)c1ccccc1 (stereo not drawn),.,1.5%,-3.5,2.8%,-0.7%,20.1%,17.1%
COc1cc(CC(=O)NNC(=O)c2cc(C)oc2C)cc(OC)c1OC,0.0,0.4%,6.2,-1.0%,1.7%,13.0%[15.4 µM],3.3%
C/C(=N\NC(=O)c1ccc(F)cc1)c1ccc(NC(=O)Cc2ccccc2)cc1,.,-4.5%,1.0,0.3%,19.4%,-13.1%[15.4 µM],18.9%
C[C@@H]1CN([C@H](C)CO)C(=O)CCCn2nncc2CO[C@@H]1CN(C)S(=O)(=O)c1ccc(F)cc1,.,-2.4%,-4.9,.,2.4%,?,.
O=C(NCCOc1cccc2cccnc12)c1cccs1,2.1,-12.4%,2.7,15.1%,0.2%,-1.9%,10.3%
Cc1ccc(-c2csc(Cc3nc(-c4ccc5c(c4)CCC(=O)N5)cs3)n2)cc1,4.6,.,-4.1,-2.2%,-0.4%,-5.5%[15.4 µM],-3.3%
COc1cc(-c2nnc(COC(=O)c3ccc(C)o3)o2)cc(OC)c1OC,.,-0.4%,0.3,-4.5%,2.8%,?,.
COc1ccc(S(=O)(=O)NCC2CCCN(Cc3cccc(C(C)=O)c3)C2)cc1 (stereo not drawn),-1.5,-1.7%,-4.9,8.0%,-1.5%,5.2%,2.5%
COC(=O)C1=C(SC)N(c2ccc(OC)cc2)C(c2ccccc2)CC1=O (stereo not drawn),-0.8,2.1%,-5.2,-8.2%,2.3%,2.5%,7.3%
CCC(C)N1CCCC1C(=O)Nc1c(C)cc(C)cc1C (stereo not drawn),0.9,-12.7%,-4.6,6.8%,0.2%,-5.1%,8.3%
COC(=O)CCC(=O)OC1(C)C(=O)C=C2C=C(C3CC3)N(C3CCCCC3)C=C2C1=O (stereo not drawn),-4.7[11.7 µM],-3.8%,4.5,-3.8%,2.5%,.,7.3%&-6.1%
COc1cc(-c2noc(C)c2C(=O)NCCO)cc(OC)c1OC,-5.8,-1.0%&1.6%,-1.4,-5.4%,0.1%,.,5.4%
# Additional compounds follow:
SMILES,Menin MLL FP FL,ClpP mod,D2 agonist,gsp antagonist,PINK1 modulator,gsp agonist,Sfp PPTase inh
COC(=O)c1cccc(Nc2ncnc3sccc23)c1,6.8,-3.7%,2.9,-13.0%,3.8%,32.7%,-2.4%
O=C(N/N=C/c1cc(Br)cc(Cl)c1O)c1ccc2c(c1)OCO2,.,.,-10.0,-20.9%,7.3%,11.3%[15.4 µM],.
CCOCCn1c(COc2ccc(C)cc2)nc2ccccc21,-0.5,1.3%,-2.3,-12.0%,9.4%,-52.3%,24.2%
S=c1[nH]nc(-c2ccccn2)n1/N=C/c1ccc(Cl)c(Cl)c1,1.6,.,-4.1,?,-1.1%,-11.1%[15.4 µM],0.0%
COc1ccc(C)cc1NC(=O)CSc1ccc(-c2sc(C)nc2C)nn1,-3.0,0.0%,0.7,?,1.4%,-31.6%,-0.7%
Cc1ccc(NC(=O)CCc2ccc(S(=O)(=O)N3CCOCC3)cc2)c(O)c1,.,.,7.8,6.7%,-0.8%,?,.
O=C(O)C1C2CC2CN1C(=O)c1ccc(Cl)cc1 (stereo not drawn),-7.4,.,-2.8,1.3%,0.3%,9.5%[15.4 µM],21.4%
CC(c1nc2ccccc2c(=O)[nH]1)N1CCOCC1 (stereo not drawn),-1.4,.,-2.9,5.5%,-0.8%,21.3%,0.9%

# Compound activity deposited in PubChem by National Center for Advancing Translational Sciences (NCATS).
